Bioassay records: PubChem, National Center for Advancing Translational Sciences (NCATS)
2A Renilla: lowers the Renilla signal of an FMDV 2A StopGo reporter; HEK cells with a luciferase reporter of 2A StopGo recoding; Potency, µM (top dose mostly 57.5 µM), for inactives: top-dose signal change, negative = less light; 120,000 tested, 0.32% active; AID 1745857; active means well fitted falling curve with a large enough effect; inconclusive means small, poorly fitted or top-dose-only effect; inactive means no such curve, though single readings can be large or run the other way; further: nearly all actives have a fitted effect of over 55% in size; overnight with compound
StopGo FLuc: FMDV 2A StopGo reporter, firefly signal; 120,000 tested, 0.23% active; Potency, µM (highest dose often 57.5 µM), without a hit: at the top dose signal change, negative = less light; HEK cells with a luciferase reporter of 2A StopGo recoding; AID 1745856; active = well fitted falling curve with a large enough effect; inconclusive = small, poorly fitted or top-dose-only effect; inactive = no such curve, though single readings can be large or run the other way; further: nearly all actives have a fitted effect of over 60% in size; overnight with compound
Numbers without * were called inactive; & = joins results of further samples; [ ] = remark or other dose. On the % scale 0 is the no-effect control and ±100 the full control effect; potency means the concentration at half of the fitted maximal effect. Outcome played no part in choosing rows; any-hit rate near 0.53%.

How did O=C(c1cnn(-c2ccc(F)cc2)c1-n1cccc1)N1CCN(c2cccc(Cl)c2)CC1 do in these assays?
2A Renilla: -1%; StopGo FLuc: -2%

What do the screens show for `Cc1cc(C)cc(OCC(=O)N(Cc2cccs2)c2ccc(Cl)cc2)c1`?
2A Renilla: 1%; StopGo FLuc: -12%

How did c1cnc(-c2nn3c(COc4ccc5c(c4)OCO5)nnc3s2)cn1 do in these assays?
2A Renilla: -12%; StopGo FLuc: 1%

Results for Cc1ccc(S(=O)(=O)Nc2nc3ccccc3nc2Nc2ccc3c(c2)OCCO3)c(C)c1 ?
2A Renilla: 135%[activator]; StopGo FLuc: 11%

Results for O=C(CS(=O)(=O)c1cccc2nsnc12)N1CCN(c2cccc(Cl)c2)CC1 ?
2A Renilla: -8%&-26%; StopGo FLuc: inconclusive

Results for CCN(CC1COc2ccccc2O1)S(=O)(=O)N1CCOCC1 (stereo not given) ?
2A Renilla: 29%; StopGo FLuc: -13%

How did C=CC[C@@H]1Cc2c(Br)ccc(Br)c2[C@@H](CC=C)N1 do in these assays?
2A Renilla: 18%; StopGo FLuc: 8%

Results for NC(=O)c1ccc(S(=O)(=O)N2CCN(C(=O)c3cc4c(s3)CCC4)CC2)cc1 ?
2A Renilla: 8%; StopGo FLuc: -4%

What do the screens show for `COc1ccc(N2C(=O)CCC2(C#N)c2ccccc2OCc2ccccc2)cc1` (stereo not given)?
2A Renilla: 24%; StopGo FLuc: -11%

What do the screens show for `CN(CC(=O)Nc1ccc(Br)cc1)S(=O)(=O)c1cccc2nsnc12`?
2A Renilla: 8%; StopGo FLuc: -18%

What do the screens show for `CCOC(=O)Nc1ccc2c(CN3CCC(C(N)=O)CC3)cc(=O)oc2c1`?
2A Renilla: -5%; StopGo FLuc: 0%

What do the screens show for `COc1cccc(C(=O)/C(C#N)=C\c2ccccc2C(F)(F)F)c1`?
2A Renilla: 10%; StopGo FLuc: 15%

Results for CCOC(=O)C1=C(C)N=C2SCCC(=O)N2C1c1ccc(C(C)(C)C)cc1 (stereo not given) ?
2A Renilla: 20%; StopGo FLuc: 5%

Results for Cc1nc2nc(C(F)(F)F)[nH]n2c(=O)c1Cc1ccc(Br)cc1 ?
2A Renilla: -30%; StopGo FLuc: -10%

How did Cc1nc(Cc2nn3c(-c4cc(Cl)ccc4F)nnc3s2)cs1 do in these assays?
2A Renilla: -16%; StopGo FLuc: -1%

Results for CC(C)NC(=O)NC(=O)C(C)Cl (stereo not given) ?
2A Renilla: 5%; StopGo FLuc: 13%

What do the screens show for `COc1ccc(Oc2coc3cc(OC(C)C(=O)OC(C)C)ccc3c2=O)cc1` (stereo not given)?
2A Renilla: -14%; StopGo FLuc: -2%

Results for COc1ccc(C(=O)C(C)n2cnc3c2c(=O)n(C)c(=O)n3C)cc1 (stereo not given) ?
2A Renilla: -26%; StopGo FLuc: -9%

Results for CCOC(=O)C1CCCN(CC(O)c2ccc(F)cc2)C1 (stereo not given) ?
2A Renilla: 17%; StopGo FLuc: 21%

What do the screens show for `CC(=O)c1cc(-c2ccc(F)cc2)n(CCC(=O)NC2CCCCC2)c1C`?
2A Renilla: 11%; StopGo FLuc: 3%

What do the screens show for `Cc1cc(NC(=O)CCN2CCN(Cc3ccccc3)CC2)ccc1Br`?
2A Renilla: -16%; StopGo FLuc: -9%

What do the screens show for `O=Cc1c(-c2ccccc2)cc2ccccn12`?
2A Renilla: 36%[activator]; StopGo FLuc: 149%[activator]

How did O=C(N=C1N(Cc2ccccc2)[C@@H](Cc2ccccc2)[C@]2(C=C3CCCCC3n3c(=O)n(-c4ccccc4)c(=O)n32)N1C(=O)OCc1ccccc1)c1ccccc1 (stereo not given in full) do in these assays?
2A Renilla: -2%; StopGo FLuc: 0%

Results for CCCCC(=O)Nc1ccccc1C(=O)OCc1cc(=O)n2nc(C3CCCCC3)sc2n1 ?
2A Renilla: -9%; StopGo FLuc: -15%

Results for Cc1ccc(-c2cn3nc(N4CCC(C(=O)NCc5ccc(OC(C)C)cc5)CC4)sc3n2)cc1 ?
2A Renilla: -4%; StopGo FLuc: 129%[activator]

Results for C=CCNC(=O)NC(=O)COC(=O)Cc1n[nH]c(=O)c2ccccc12 ?
2A Renilla: -11%; StopGo FLuc: -5%

What do the screens show for `N#Cc1nc(-c2cccs2)oc1N1CCN(C(=O)c2cccc(Cl)c2)CC1`?
2A Renilla: 5%; StopGo FLuc: 13%

How did Cc1ccc(CSc2ncccc2C(=O)O)cc1 do in these assays?
2A Renilla: -1%; StopGo FLuc: 53%[activator]

How did COC(=O)CCc1sc(Nc2ccc(Br)cc2)nc1-c1ccc(OC)cc1 do in these assays?
2A Renilla: 36%[activator]; StopGo FLuc: 79%[activator]

How did Clc1ccc(COc2ccc(CNC3CC3)cc2)cc1 do in these assays?
2A Renilla: 15%; StopGo FLuc: 82%[activator]

Results for COc1ccc(C(C)=O)c(OC(=O)/C=C/c2cccs2)c1 ?
2A Renilla: -5%; StopGo FLuc: -6%

What do the screens show for `O=C(Nc1cccc(OCC2CCCO2)c1)C1CCCC1` (stereo not given)?
2A Renilla: 24%; StopGo FLuc: 0%

How did Cc1oc(-c2ccccc2)nc1CN1CCNC(=O)C1 do in these assays?
2A Renilla: 1%; StopGo FLuc: 11%

Results for CCOCCc1nnc(NC(=O)C(=O)c2cc(C)n(-c3ccc(C)cc3C)c2C)s1 ?
2A Renilla: 4%; StopGo FLuc: -6%

How did COCCCNC(=O)CCCn1c(SCC(=O)c2ccc(F)cc2)nc2c(sc3ccccc32)c1=O do in these assays?
2A Renilla: 1%; StopGo FLuc: -11%

How did O=C(OCc1cccc(F)c1F)c1ccc(CN2CCCC2=O)cc1 do in these assays?
2A Renilla: -9%; StopGo FLuc: 0%

What do the screens show for `CCn1c(C)c(CCC(=O)NCc2cccc(OC)c2)c(=O)n2nc(-c3ccccc3OC)cc12`?
2A Renilla: 45%[activator]; StopGo FLuc: 65%[activator]

How did O=C(COC(=O)C1CCC1)c1ccc[nH]1 do in these assays?
2A Renilla: -1%; StopGo FLuc: -9%

Results for CN(C)c1ccc(N=c2cc(-c3ccccc3)cc(-c3ccccc3)s2)cc1 ?
2A Renilla: -6%[1.06 µM]; StopGo FLuc: 65%[activator]

What do the screens show for `O=C(NCCSc1ccccc1)c1cc(Cl)c2c(c1)OCCCO2`?
2A Renilla: 27%; StopGo FLuc: -19%

Of the compounds above, 2 contain a CF3 group.
What do the screens show for `COc1cccc(C(=O)/C(C#N)=C\c2ccccc2C(F)(F)F)c1`?
2A Renilla: 10%; StopGo FLuc: 15%

Results for Cc1nc2nc(C(F)(F)F)[nH]n2c(=O)c1Cc1ccc(Br)cc1 ?
2A Renilla: -30%; StopGo FLuc: -10%

Continued.
How did CCCCNC(=O)C1CCCN(c2nnc(C)c3c(C)n(-c4ccc(Cl)cc4)nc23)C1 (stereo not given) do in these assays?
2A Renilla: -5%; StopGo FLuc: 0%

What do the screens show for `O=C(Nc1ccc(F)cc1Cl)C1CCN(c2ncnc3c2nc2n3CCCCC2)CC1`?
2A Renilla: -10%; StopGo FLuc: -4%

What do the screens show for `CC(=O)Nc1cccc(NC(=O)Cn2cnc3c2c(=O)n(C)c(=O)n3C)c1`?
2A Renilla: -8%; StopGo FLuc: -11%

Results for Cc1ccc(-n2c(SCc3cccc(F)c3)nc3[nH]ncc3c2=O)cc1C ?
2A Renilla: 5%; StopGo FLuc: -17%

What do the screens show for `O=C(O)Cc1sc(Nc2ccc(C(=O)O)cc2)nc1-c1ccccc1`?
2A Renilla: -5%; StopGo FLuc: 129%[activator]

How did O/N=C/c1cccc(Cl)c1Cl do in these assays?
2A Renilla: 12%; StopGo FLuc: 0%

How did CN(Cc1cccs1)C(=O)c1cccc(S(=O)(=O)N2CCCC2)c1 do in these assays?
2A Renilla: 12%; StopGo FLuc: 5%

What do the screens show for `O=C(COc1cccc(Cl)c1)Nc1ccc(-c2nc3ccccc3o2)cc1`?
2A Renilla: -4%; StopGo FLuc: 76%[activator]

How did CC12CCC(C/C1=N\O)C2(C)CBr (stereo not given) do in these assays?
2A Renilla: 6%; StopGo FLuc: 5%

Results for Cc1nc(-c2ccc(OC(F)(F)F)cc2)sc1C(=O)N1CCOCC1 ?
2A Renilla: -10%; StopGo FLuc: 125%[activator]

Results for COc1cc(C(=O)N(Cc2ccc(C(C)C)cc2)C2CCS(=O)(=O)C2)cc(OC)c1OC (stereo not given) ?
2A Renilla: -8%; StopGo FLuc: -27%

Results for O=S(=O)(NCC(c1ccccc1)N1CCc2ccccc21)c1ccc(Cl)cc1 (stereo not given) ?
2A Renilla: 101%[activator]; StopGo FLuc: 13%

Results for C=CCC(NCc1ccccc1)c1ccc(C)o1 (stereo not given) ?
2A Renilla: 0%; StopGo FLuc: 5%

What do the screens show for `Cc1cccc(NC(=O)CNC(=O)CCc2c(C)nc3c4ccccc4nn3c2C)c1C`?
2A Renilla: -16%; StopGo FLuc: -7%

How did CC(C)(C)OC(=O)NCCC(=O)NC1CCCCC1 do in these assays?
2A Renilla: 11%; StopGo FLuc: 14%

How did CC(C)c1ccc(Nc2nnc(SCC(=O)NC(C)(C)C)s2)cc1 do in these assays?
2A Renilla: 2%; StopGo FLuc: 101%[activator]

What do the screens show for `CCc1ccc(NC(=O)N2CCN(Cc3ccc(Cl)s3)CC2)cc1`?
2A Renilla: -5%; StopGo FLuc: 0%

Results for CCOC(=O)c1ccc(Nc2c(-c3ccc(O)cc3)nc3nc[nH]n23)cc1 ?
2A Renilla: -12%; StopGo FLuc: -9%

What do the screens show for `Cc1ccc(S(=O)(=O)n2nc(-c3ccccc3)nc2NCc2ccc(Cl)cc2)cc1`?
2A Renilla: -3%; StopGo FLuc: -13%

How did Cc1ccc2c(c1)-c1ncc(C(=O)c3cc(Br)ccc3O)cc1CO2 do in these assays?
2A Renilla: 84%[activator]; StopGo FLuc: 17%

Looked up by compound from the list above (two):
How did Cc1ccc2c(c1)-c1ncc(C(=O)c3cc(Br)ccc3O)cc1CO2 do in these assays?
2A Renilla: 84%[activator]; StopGo FLuc: 17%

Results for C=CCC(NCc1ccccc1)c1ccc(C)o1 (stereo not given) ?
2A Renilla: 0%; StopGo FLuc: 5%

Other entries follow:
What do the screens show for `COc1ccc2[nH]cc(C3C(NC(=O)c4ccc(Cl)cc4)=C(C)Nc4ncnn43)c2c1` (stereo not given)?
2A Renilla: 0%; StopGo FLuc: -15%

How did CCCn1nc(C(=O)OCC(=O)NCc2ccc(F)cc2)c2ccccc2c1=O do in these assays?
2A Renilla: -9%; StopGo FLuc: 0%

Results for CCOC(=O)C(=O)Nc1c(C(=O)Nc2ccc(C)cc2)oc2ccccc12 ?
2A Renilla: 1%; StopGo FLuc: 25%

Results for Cc1cc(C)c2c(C)c(C(=O)O)oc2c1 ?
2A Renilla: 56%[activator]; StopGo FLuc: 35%[activator]

What do the screens show for `CCOC(=O)C1CCCN(c2c(C(=O)c3ccc(OCC)cc3)cnc3ccccc23)C1` (stereo not given)?
2A Renilla: 8%; StopGo FLuc: 8%

What do the screens show for `O=C(CSc1nc(-c2ccccc2)cc(=O)[nH]1)Nc1ccc(Cl)c(C(F)(F)F)c1`?
2A Renilla: 3%; StopGo FLuc: 9%

Results for COCCCNc1oc(/C=C/c2cc(OC)c(OC)c(OC)c2)nc1C#N ?
2A Renilla: 89%&45%[activator]; StopGo FLuc: 32%&22%[activator]

Results for COCCn1c(C)cc(O)c(C(c2ccccc2Cl)N2CCCCC2)c1=O (stereo not given) ?
2A Renilla: 24%; StopGo FLuc: -15%

What do the screens show for `CCCCCCN1CCS(=O)(=O)N(Cc2ccccc2)C(C(=O)OC)C1` (stereo not given)?
2A Renilla: 37%[activator]; StopGo FLuc: 9%

Results for COc1ccc(S(=O)(=O)Nc2nc3ccccc3nc2Nc2ccc(Br)c(C)c2)cc1 ?
2A Renilla: 3%; StopGo FLuc: 8%

What do the screens show for `Cc1nc2cc(NC(C)C(=O)Nc3ccc(C(F)(F)F)cc3)ccc2o1` (stereo not given)?
2A Renilla: inconclusive; StopGo FLuc: inconclusive

How did CCCCc1ccc(-c2csc(NC(=O)COCc3nc4ccccc4c(=O)[nH]3)n2)cc1 do in these assays?
2A Renilla: -8%; StopGo FLuc: 119%[activator]

Results for O=C(c1ccccc1)c1ccccc1 ?
2A Renilla: -8%; StopGo FLuc: -4%[11.5 µM]

What do the screens show for `Cc1nc(S(=O)(=O)N2CCC(C(=O)N3CCN(c4ccccc4)CC3)CC2)cn1C`?
2A Renilla: -2%; StopGo FLuc: -1%

Results for Cc1ccc(NS(=O)(=O)c2ccc3[nH]c4c(c3c2)CCCCCC4)cc1Cl ?
2A Renilla: -4%; StopGo FLuc: 0%

How did CCCOc1c(Br)cc(C(=O)OCC(=O)c2cc(C)c(C)cc2C)cc1OC do in these assays?
2A Renilla: 5%; StopGo FLuc: -4%

Results for CCOc1ccc(-c2nnc(SCC(=O)Nc3cccc(OC)c3)nc2-c2ccc(OCC)cc2)cc1 ?
2A Renilla: -25%; StopGo FLuc: 0%

Results for CCOC(=O)CC1(NC(=O)N2CCCC2c2ccco2)CCCCC1 (stereo not given) ?
2A Renilla: 0%; StopGo FLuc: 4%

How did COc1ccccc1CNC(=O)c1ccc(CS(=O)c2ccccc2Cl)o1 (stereo not given) do in these assays?
2A Renilla: inconclusive; StopGo FLuc: inconclusive

How did O=C(c1cc2ccccc2oc1=O)N1CCCN(C2CC2)CC1 do in these assays?
2A Renilla: -2%; StopGo FLuc: 7%

What do the screens show for `O=C(O)/C=C/c1ccc(Cn2ccnc2)cc1`?
2A Renilla: -7%; StopGo FLuc: -14%[11.5 µM]

What do the screens show for `O=C(Cn1c2ncccc2c(=O)n1-c1ccccc1)NCc1ccccc1Cl`?
2A Renilla: -2%; StopGo FLuc: -10%
